Assay outcomes: PubChem BioAssay, several laboratories
MLL AF4-AF9 inh: blocks AF4 peptide binding to human AF9. P42568. AlphaScreen, biotin-AF4 peptide binding to FLAG-AF9. inhibition, % at 10 µM. actives 0.47% (n = 350,000). AID 651704;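 active = every replicate reaching a set inhibition limit, whatever the replicate mean, cut at about 25% in these data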;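 also: 0% = plate neutral control median and 100% = total signal loss; the record names both 10 and 1 µM as test concentration; the first replicate is given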
Target sequence (P42568 whole entry, looked up): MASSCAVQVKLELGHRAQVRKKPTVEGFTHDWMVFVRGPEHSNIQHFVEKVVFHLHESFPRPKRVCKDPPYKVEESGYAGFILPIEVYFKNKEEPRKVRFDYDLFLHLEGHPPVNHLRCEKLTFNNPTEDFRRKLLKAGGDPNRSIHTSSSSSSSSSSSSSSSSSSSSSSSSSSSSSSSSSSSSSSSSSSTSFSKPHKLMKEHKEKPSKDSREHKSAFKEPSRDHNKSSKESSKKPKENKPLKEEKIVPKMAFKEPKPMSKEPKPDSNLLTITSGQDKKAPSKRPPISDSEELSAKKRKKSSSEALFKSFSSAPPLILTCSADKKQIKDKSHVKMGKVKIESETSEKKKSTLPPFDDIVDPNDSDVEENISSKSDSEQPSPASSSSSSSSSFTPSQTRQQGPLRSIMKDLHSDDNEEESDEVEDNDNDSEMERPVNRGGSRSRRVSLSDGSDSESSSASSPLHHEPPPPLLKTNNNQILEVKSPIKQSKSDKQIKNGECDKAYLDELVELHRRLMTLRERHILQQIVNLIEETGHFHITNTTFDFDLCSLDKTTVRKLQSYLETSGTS
Vif A3G: HIV-1 Vif–A3G interaction blockers – biochemical, TR-FRET, GST-Vif 1-94, biotin-A3G peptide, dose response retest, primary screen (AID 1117319); actives 0.57% (n = 260,000); inhibition, %, or IC50 in µM where a hit was titrated; TR-FRET GST-Vif / biotin-A3G peptide binding; higher % means a stronger effect; test concentration not given here; strong numbers were not always called active;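 active = above the screen mean plus three standard deviations and confirmed in dose response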;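 also: Vif residues 1-94 fused to GST binding biotinylated APOBEC3G peptide 110-148; 0% = full assay without inhibitor and 100% = GST in place of GST-Vif; retest series ran down from 100 µM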
rRNA inh HTS: inhibitors of bacterial rRNA selective over humanized ribosomes. E. coli WT GFP vs humanized-ribosome RFP mutants, fluorescence, 24 h; stronger effect = lower value; DMSO median 0, no signal -100. GFP signal change (wild-type ribosome), % (concentration not given with the values). actives 1.6% (n = 350,000). AID 720706;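 active = significant combined selectivity score with lowered wild-type GFP, culture density cut under 30%, mutant RFP and density less affected; inactive = any of these conditions unmet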; also: one replicate is shown; some compounds called inactive have numbers as strong as hits
rRNA inh HTS OD600: also measured in rRNA inh HTS; calls as there; OD600 change, %; measured here: OD600 growth;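 optical density of the mix in the first replicate; 0 = DMSO median and -100 = no signal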
rRNA inh HTS RFP: second read-out of rRNA inh HTS, no call of its own (marks repeat the call); RFP signal change, %; measured here: RFP humanized mutant strains;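 first replicate; 0 = DMSO median and -100 = no signal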
* hit, by the source's call; & = joins results of further samples. Only part of the results is shown (hit frequency here may not be typical).

SMILES | MLL AF4-AF9 inh | Vif A3G | rRNA inh HTS | rRNA inh HTS OD600 | rRNA inh HTS RFP
O=C(Cc1ccc(NC(=O)C2CCCN(C(=O)CCc3ccccc3)C2)cc1)Nc1cccc(C(=O)N2CCCCC2)c1 (configuration not stated) | -0.1 | 3% | -5 | -1 | 2.2
Cc1cc(C)c(C)c(S(=O)(=O)N2CCC(C(=O)NCc3cccs3)CC2)c1C | -11 | -10% | -6 | -45 | 3.0
COc1ccc(/C(N)=N/OC(=O)CN(C)S(=O)(=O)c2ccccc2)cc1 | -3.2 | 2% | -24 | -36 | -5.6
Cc1ccc(NC(=O)c2ncn(CC(=O)N[C@H](C)c3cccc4ccccc34)n2)cc1C | -2.3 | -7% | 15 | 12 | 3.9
CCN1C(=O)[C@H]2[C@H]3CN=C(SCc4ccc(Cl)cc4)N3[C@@](CC)(C(=O)OC)[C@H]2C1=O | 0.5 | 0% | -6 | -12 | 5.5
C/C=C/c1ccc2c(c1)O[C@H](CN(C)C(=O)NC1CCCC1)[C@H](C)CN([C@H](C)CO)S2(=O)=O | 0.2&-1.2 | 4% | -2&-4 | 1&-13 | -4.5&-4.2
Nc1ccc2ccc(O)cc2c1 | 6.9 | 6% | -27 | -36 | -7.7
COc1ccc(N2CCN(C(=O)CSc3nnc(C4CC4)n3C3CC3)CC2)cc1 | -0.6 | -5% | -1 | 2 | -0.8
O=C(OCC(=O)N1CCc2ccccc21)c1cc(S(=O)(=O)N2CCOCC2)ccc1F | -12 | -6% | 9 | 17 | 0.8
c1ccc2c(c1)CNc1ccccc1-2 | -4.8 | 1% | -28 | -27 | -0.8
C[C@@H]1CN([C@H](C)CO)S(=O)(=O)c2ccc(C#Cc3ccccc3F)cc2O[C@H]1CN(C)C(=O)c1ccc2c(c1)OCO2 | 1.9&-2.5&-0.3 | -2% | -2&4 | -4&10 | 11&2.1
COc1ccc(NC(=O)CN(C)C(=O)c2cc(C)oc2C)cc1 | 0.4 | 2% | 10 | 10 | 1.9
COC(=O)C(CC(=O)CNC(=O)c1ccccc1)NC(=O)c1ccccc1 (configuration not stated) | -1.7 | -5% | 6 | 16 | 37
Nc1nc(N2CCCCC2)c2ncn(C3OC(CO)C(O)C3O)c2n1 (configuration not stated) | -4.8 | 3% | 6 | 3 | -5.4
O=C(CCN1CCCCC1)Nc1ccc(F)c(F)c1 | -1.4 | 3% | 6 | 6 | -1.9
C[C@]12c3[nH]c4cc(-c5ccco5)ccc4c3CCN1C(=O)[C@@H](CC(=O)NCc1ccco1)C[C@@H]2C(=O)N1CCOCC1 | 15 | -5% | 0 | -3 | 1.2
CCOC(=O)C1(CCCc2ccccc2)CCN(C(=O)c2n[nH]c(CC)c2C)CC1 | -19 | 7% | -24 | -37 | -4.9
CN(C)CCCNC(=O)C[C@H]1C[C@H](C(=O)N2CCCCC2)[C@@]2(C)c3[nH]c4cc(CCC(=O)N(C)C)ccc4c3CCN2C1=O | -4.8 | -6% | 10 | 7 | 3.2
O=[N+]([O-])c1cccc(N=NNc2cccc([N+](=O)[O-])c2)c1 | -1.6 | 1% | -27* | 14* | -3.4*
CCCCN1C(=O)C(CC(=O)NCCc2ccccn2)CC(C(=O)N(C(C)C)C(C)C)=C1C (configuration not stated) | -2.0 | -1% | -8 | -10 | -1.1
CCOc1ccc(NC(=O)/C(C#N)=C\c2ccc(N3CCCC3)c(C)c2)cc1 | 0.4 | -1% | -11 | 3 | 25
Cc1cccc(NC(=O)COC(=O)CN2C(=O)c3ccccc3C2=O)c1C | -0.8 | -2% | 6 | 3 | -0.8
O=C(Nc1ccccc1)C(Cc1ccccc1)c1ccccc1 (configuration not stated) | -2.3 | -3% | -3 | 0 | 10
Cc1ccc(NC(=O)CCN2C(=O)NC(C)(C)C2=O)cc1F | 7.0 | 1% | -1 | 4 | -1.4
O=C(C=NNc1ccccc1)c1ccccc1 | 9.8 | -7% | -19 | -17 | 3.1
CN(Cc1ccccc1F)C(=O)c1cccc(NC(=O)CC2SC(N3CCCCC3)=NC2=O)c1 (configuration not stated) | -8.8 | 1% | -3 | -2 | 8.3
O=C1C=C(c2ccc(CO)cc2)C[C@@H](c2ccc(F)cc2)C1 | -1.3 | -12% | -4 | -17 | -3.2
Cc1ccccc1N(CC(=O)N1CCN(Cc2ccccc2)CC1)S(C)(=O)=O | -8.3 | -10% | 4 | 6 | 4.1
Nc1nc(SCc2ccc(Cl)cc2Cl)c2ncn(C3OC(CO)C(O)C3O)c2n1 (configuration not stated) | 4.5 | 2% | -48 | -74 | -15
COc1ccc(S(=O)(=O)Nc2cccc3c2O[C@H](CN(C)C(=O)Nc2ccccc2)[C@@H](C)CN([C@H](C)CO)C3=O)cc1 | 0.0 | 1% | 0&2 | 2&-1 | -1.1&0.5
COC(=O)c1ccccc1S(=O)(=O)N1CCC(C(=O)OC(C)C(=O)N(C)Cc2ccccc2)CC1 (configuration not stated) | -0.8 | -2% | -6 | -6 | 0.3
Cc1ccc(S(=O)(=O)N2CCCCC2)cc1NC(=O)c1cccnc1 | 2.5 | 1% | -2 | -4 | -3.1
Nc1ccn([C@@H]2O[C@H](CNCc3cc(Br)ccc3OCc3ccccc3)[C@@H](O)[C@H]2O)c(=O)n1 | 2.6 | -3% | -2 | 2 | 0.0
CC(=O)Nc1ccc2c(=O)n(-c3ccccc3)sc2c1 | -17 | 6% | 0 | -7 | 0.6
Cc1ccnc(NCc2cc(Cl)ccc2O)c1 | 2.7 | -5% | -3 | -2 | 4.4
CCOC(=O)N1CCN(S(=O)(=O)N2CCCC(C(=O)NCc3cc(Br)ccc3OC)C2)CC1 (configuration not stated) | -3.1 | 1% | 2 | -1 | 5.2
COC(=O)[C@]1(C)N[C@H](CN(C)C(=O)c2ccccc2)[C@@H]2C(=O)N(Cc3ccccc3)C(=O)[C@@H]21 | -0.1 | 3% | 4 | 5 | -1.3
O=C(NCc1ccco1)c1ccc(CS(=O)c2ccccc2Cl)o1 (configuration not stated) | 0.0 | 6% | 4 | -10 | -1.6
CC(S(=O)(=O)c1ccccc1)S(=O)(=O)c1ccccc1 | -0.7 | -7% | 1 | 3 | -2.4
C[C@@H]1CN([C@H](C)CO)C(=O)CCCn2cc(nn2)CO[C@H]1CN(C)C(=O)Nc1cccc(Oc2ccccn2)c1 | 0.9&0.7 | 6% | 1&0 | -5&0 | 0.5&-0.1
N#Cc1ccsc1NC(=O)CSc1nnc(NC2CC2)s1 | -4.9 | 6% | -12* | 4.9* | 0.0*
C/C(=N\NC(=O)CCC(=O)NCc1ccccc1)c1ccc([N+](=O)[O-])cc1 | 1.1 | -8% | 10 | 20 | 0.9
COC(=O)[C@H](Cc1ccc(O)cc1)NC(=O)Cn1cnc2c(OCc3ccccc3)ncnc21 | -0.7 | 0% | 2 | 9 | 1.7
O=C(CN1CCCc2ccccc21)Nc1cccc(S(=O)(=O)N2CCOCC2)c1 | 1.9 | 2% | -1 | 9 | 14
COc1cc2c(cc1N)-c1ccc(N)cc1C2=O | 35* | -3% | -22 | -60 | -6.8
O=C(NNC(=O)c1ccccc1O)c1ccccc1O | -1.6 | 7% | -28 | -25 | -14
O=C(NCC(=O)N1CCN(C(c2ccccc2)c2ccccc2)CC1)c1ccccc1Br | 4.8 | 2% | -2 | -18 | 13
O=C1CSC(=S)N1N=Cc1c(F)cccc1Cl | -0.6 | -2% | -8 | 6 | 6.2
COc1ccc(CNC(=O)COC(=O)c2cc3ccccc3o2)cc1 | -1.7 | 0% | 11 | 10 | 0.6
CCN(CC)C(=O)C1=C(C)N(Cc2ccc(OC)cc2)C(=O)C(CC(=O)NC2CCCC2)C1 (configuration not stated) | -0.7 | 2% | 11 | 5 | 1.3
Cc1cc(C(=O)COC(=O)c2ccc(O)cc2O)c(C)n1-c1ccc(OC(F)F)cc1 | -12 | 9% | -5 | 0 | 0.6
CCOc1cc(C(=O)OCC(=O)Nc2ccc(F)cc2Cl)ccc1OCC(=O)N1CCOCC1 | 4.7 | -1% | 2 | 9 | 4.5
Oc1ccccc1-c1nnco1 | 0.3 | -11% | 7 | 11 | -2.0
CC(=O)c1c(C)[nH]c(C(=O)OCC(=O)c2ccc(Br)cc2)c1C | 0.8 | -8% | -4 | -16 | -1.4
C[C@H](CO)N1C[C@H](C)[C@@H](CN(C)Cc2ccc(O)cc2)OCc2cnnn2CCCC1=O | -3.1&0.6 | -5% | 8&-1 | 2&6 | -1.0&1.8
CC(=O)c1ccc(S(=O)(=O)N2CCN(C(=O)c3ccc(COc4ccccc4)o3)CC2)cc1 | -33 | -3% | -6 | -10 | 1.9
CCCC(C)c1oc(=O)cc(O)c1C (configuration not stated) | -4.1 | 0% | 2 | 8 | -1.8
COc1ccc([C@H]2C[C@H](n3cc(C4CC4)nn3)[C@@H](O)CN2CC2CCCCC2)cc1 | 2.0 | -1% | -49 | -73 | -8.5
Cc1ccc(CN(C)C(=O)c2ccc(S(=O)(=O)N(C)c3ccccc3)cc2)o1 | 0.8 | -3% | -15 | -31 | -3.7
Cc1ccc(O)c(C(=O)C=Cc2ccccc2)c1 | 2.8 | 2% | -2 | -52 | 0.2

The results go on:
SMILES | MLL AF4-AF9 inh | Vif A3G | rRNA inh HTS | rRNA inh HTS OD600 | rRNA inh HTS RFP
CCc1ccc(CN2CCC(Oc3cc(C(=O)NC4CC4)ccc3OC)CC2)cc1 | 2.1 | 2% | 9 | 9 | 0.2
ON=C(CCc1ccccc1)CCc1ccccc1 | 4.0 | -7% | -25 | -49 | -9.4
Cc1ccccc1-n1c(SCC(=O)NC2CCS(=O)(=O)C2)nc2ccccc2c1=O (configuration not stated) | -6.6 | -3% | 0 | 2 | -3.0
O=c1[nH]cnc(O)c1Nc1cccc(Cl)c1 | 3.9 | -3% | 1 | 5 | -1.3
CC[C@]12c3[nH]c4cc(-c5ccco5)ccc4c3CCN1C(=O)[C@@H](CC(=O)NC/C=C(\C)CCC=C(C)C)C[C@@H]2C(=O)N1CCN(C(=O)C2CC2)CC1 | 1.2 | 1% | 28 | 19 | 54
CCCCCCCCNc1ncnc2[nH]ncc12 | 1.4 | -10% | -7 | -34 | -6.7
C=CCNc1nc2c(c(=O)[nH]c(=O)n2C)n1Cc1cccc(C)c1 | 0.5 | -4% | 5 | 9 | -2.8
CCOC(=O)C1=CN(Cc2cccc(F)c2)S(=O)(=O)N(CC)C1CCc1ccccc1 (configuration not stated) | -0.5 | -6% | 18 | 13 | 1.3
COc1ccc(C(=O)OCC(=O)c2ccco2)cc1[N+](=O)[O-] | 4.5 | 15% | -1 | 3 | 1.7
C=CC[C@@H](Cc1ccc(F)cc1)C(=O)OC[C@H]1CCCN1C(=O)[C@H](CC=C)CC(=O)N(CCO)Cc1ccccc1 | 2.1 | 0% | -8 | -26 | 9.7
O=C1Nc2ccc3c(c2C1=Cc1cc2c(cc1Br)OCO2)OCO3 | -1.9 | 2% | -7 | 1 | 2.9
Cc1ccc(NS(=O)(=O)c2ccccc2F)cc1S(=O)(=O)N1CCCCCC1 | -0.6 | -4% | -19 | -29 | -5.9
CCN1C(=O)[C@H]2[C@H]3CN=C(SCc4ccc(C(=O)OC)cc4)N3[C@@](Cc3ccccc3)(C(=O)OC)[C@H]2C1=O | 2.8 | -5% | 3 | -8 | 3.3
O=C1CS(=O)(=O)N(Cc2ccc(F)cc2)c2ccccc21 | 1.3 | 2% | -3 | 4 | 7.7
CN(N=Cc1ccccc1O)c1ccc2ccccc2n1 | -1.4 | 3% | 8 | 4 | 1.5
O=C(O)Cc1ccc2c(c1)Cc1cccnc1O2 | -1.6 | 3% | -2 | 1 | -5.9
CN(C)c1ccc(N=Nc2ccc3ncccc3c2)cc1 | -1.6 | -1% | -10 | -4 | 0.8

Whole records, quoted from the list:
Shown for `CCOC(=O)C1(CCCc2ccccc2)CCN(C(=O)c2n[nH]c(CC)c2C)CC1` = MLL AF4-AF9 inh: -19; Vif A3G: 7%; rRNA inh HTS: -24; rRNA inh HTS OD600: -37; rRNA inh HTS RFP: -4.9
Shown for `COC(=O)[C@]1(C)N[C@H](CN(C)C(=O)c2ccccc2)[C@@H]2C(=O)N(Cc3ccccc3)C(=O)[C@@H]21` = MLL AF4-AF9 inh: -0.1; Vif A3G: 3%; rRNA inh HTS: 4; rRNA inh HTS OD600: 5; rRNA inh HTS RFP: -1.3
Shown for `Cc1ccc(CN(C)C(=O)c2ccc(S(=O)(=O)N(C)c3ccccc3)cc2)o1` = MLL AF4-AF9 inh: 0.8; Vif A3G: -3%; rRNA inh HTS: -15; rRNA inh HTS OD600: -31; rRNA inh HTS RFP: -3.7

Some values from the entries so far.
Entry of `CN(N=Cc1ccccc1O)c1ccc2ccccc2n1` in rRNA inh HTS OD600: 4
Entry of `Cc1ccc(NS(=O)(=O)c2ccccc2F)cc1S(=O)(=O)N1CCCCCC1` in rRNA inh HTS OD600: -29
